Screening results as filed in PubChem.
Autofluor counter = counter-screen for toxin protease inhibitors: compound fluorescence. compound autofluorescence counterscreen, microsphere flow cytometry; active compounds read high. fluorescence intensity (test concentration not listed). 360,000 tested, 3.1% active. AID 624483;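 active = at least 3 SD above the mean of all compounds, about 16000 in these data; inconclusive = too few beads counted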;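 also: 100 nL of 1 mM stock went into each well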
RN4220 kill = growth inhibition of S. aureus RN4220, primary screen, OD600 | 16 h | inhibition, % (no concentration beside the values) | 330,000 tested, 0.33% active | AID 1259311, 2017;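 active = z-score of -3 or lower and OD600 up to 0.18 on both plates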;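 also: plate controls were untreated cells for no effect and reference antibiotic for full effect; stock transfer was 100 nL into about 80 µL; one replicate is shown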
PrP UTR inh = inhibition of PrP 5' UTR reporter expression | cell-based PrP 5' UTR mRNA reporter, plate reader | inhibition, % (test concentration not listed) | 340,000 tested, 0.35% active;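 active = every replicate at 50% or more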;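 also: 0 = median of the neutral control wells; tested in H4 reporter cells; numbers are from one replicate; inactives centre near -14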
Mtb hypoxia rep = PubChem AID 1159583 | M. tuberculosis hypoxia-regulated fluorescent reporter, fluorescence | 300,000 tested, 0.1% active | fluorescence inhibition, % (no concentration beside the values);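 active = 35 to 45% if threefold the growth effect, above 45% if 1.5-fold the growth effect; inactive = the rest, general growth blockers included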;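 also: wells of about 50 µL received 100 nL stock; 0% = vehicle wells and 100% = reference inhibitor wells; whole bacteria with a GFP reporter of the hypoxia response; strong numbers were not always called active; many hits fall short of the cut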
ugtP null kill = growth inhibition of ugtP-null S. aureus, primary screen, RN4220 ugtP deletion, OD600; 16 h; some inactives read as strong as hits; 330,000 tested, 0.54% active; growth inhibition, % (test concentration not listed); AID 1259309, 2017;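 active = z-score under -3 and OD600 up to 0.15 on both plates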;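 also: plate controls were untreated wells for no effect and antibiotic for full effect; wells of about 80 µL received 100 nL stock; the first replicate is given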
BJeLR viability = MLPCN primary cell-based screen for lethality selective to Ras in HRASV12 cells; BJeLR (HRASV12) viability, CellTiter-Glo ATP luminescence, 48 h; reference of the scale not given here; inhibition, % (no concentration beside the values); 300,000 tested, 0.17% active; AID 1554, 2009;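 active = replicate mean above 50%; inconclusive = above 50% but judged a plate artefact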;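 also: 50 nL library stock added to about 25 µL; numbers are from one replicate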
Mtb hypoxia rep growth = second read-out of Mtb hypoxia rep, no call of its own (marks repeat the call); growth inhibition, %; measured here: M. tuberculosis growth (absorbance);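 0% = vehicle and 100% = reference antibiotic; read after six days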
Active calls of the source: *; ? = inconclusive; / = no result given; & = joins results of further samples. This is a random part of the collection; about 4% have a hit in one of these screens.

Start of the listing, in advance, three compounds:
item	Molecule	Autofluor counter	RN4220 kill	PrP UTR inh	Mtb hypoxia rep
1	N/C(Cc1nc(-c2ccc(Br)cc2)cs1)=N\O	4181	/	-41	/
2	COc1ccc(-n2nc(C(=O)NCC(=O)NCCCN3CC(C)CC(C)C3)c3ccccc3c2=O)cc1 (stereo not given)	4136	4.1	-18	13
3	COc1ccc(-c2oc3c(OC)c(OC)c(OC)c(O)c3c(=O)c2OC)cc1OC	4692	7.4	-6	/

item	Mtb hypoxia rep growth	ugtP null kill	BJeLR viability
1	/	/	-2
2	1	1	-9
3	/	-6	-6

This part in full, from the start:
item	Molecule	Autofluor counter	RN4220 kill	PrP UTR inh	Mtb hypoxia rep
1	N/C(Cc1nc(-c2ccc(Br)cc2)cs1)=N\O	4181	/	-41	/
2	COc1ccc(-n2nc(C(=O)NCC(=O)NCCCN3CC(C)CC(C)C3)c3ccccc3c2=O)cc1 (stereo not given)	4136	4.1	-18	13
3	COc1ccc(-c2oc3c(OC)c(OC)c(OC)c(O)c3c(=O)c2OC)cc1OC	4692	7.4	-6	/
4	CCN(Cc1nc(-c2ccc(Cl)cc2)no1)CC1CCCO1 (stereo not given)	4525	9.0	-21	9
5	C=CCOn1c(=O)c(-c2ccc(Cl)cc2)[n+]([O-])c2ccccc21	3969	-1.3	-15	-2
6	COc1cccc(-c2nc(CS(=O)CC(=O)NCCc3ccc(C)cc3)c(C)o2)c1 (stereo not given)	4116	1.8	-22	6
7	CC(NC(=O)/C(=C\c1cccc([N+](=O)[O-])c1)NC(=O)c1ccco1)C(=O)O (stereo not given)	6483	3.2	-15	5
8	O=C(C(c1ccccc1)c1ccccc1)N1CCOCC1	3767	-0.8	-12	/
9	CCOc1ccc(S(=O)(=O)Nc2ccc(S(=O)(=O)Nc3cc(OC)ccc3OC)cc2)cc1	8340	8.7	-4	2
10	COc1ccc(C(C)(C)C)cc1NC(=O)COC(=O)C(C)C	4196	6.3	-13	-7
11	O=S(=O)(c1ccc(Cl)cc1)N1CCCC(C(F)(F)F)C1 (stereo not given)	4265	13	-18	6
12	O=C(CCCc1nc2ccccc2s1)Nc1ccc(N2CCOCC2)cc1	5323	3.0	-16	9
13	CN(C)c1nc(Oc2ccc(C=NO)cc2)nc(N(C)C)n1	/	3.4	/	4
14	O=C1CCc2cc(S(=O)(=O)Nc3ccc(F)cc3)cc3c2N1CC3	5480	8.4	-27	6
15	O=C(NN=Cc1cc([N+](=O)[O-])ccc1O)c1ccc2c(c1)OCCO2	/	90*	/	6

item	Mtb hypoxia rep growth	ugtP null kill	BJeLR viability
1	/	/	-2
2	1	1	-9
3	/	-6	-6
4	7	4	4
5	2	-6	13
6	-2	4	7
7	9	5	2
8	/	4	3
9	6	1	-5
10	3	5	-6
11	9	17	2
12	4	10	-7
13	7	-2	/
14	3	-13	8
15	-5	68	/

The listing continues.
item	Molecule	Autofluor counter	RN4220 kill	PrP UTR inh	Mtb hypoxia rep
16	O=C(CS(=O)(=O)c1ccccc1)c1cc2ccccc2oc1=O	4803	6.0	-8	6
17	CCN(CC)C(=O)COc1coc(CN2CCN(c3ccccc3)CC2)cc1=O	4025	0.5	-2	-6
18	C/C(CC(=O)NC(C)(C)C)=N\NC(=O)c1ccco1	2631	/	-18	/
19	COC(=O)c1cc(NC(=O)Cc2cc(OC)c(OC)c(OC)c2)cc(C(=O)OC)c1	3461	5.1	-4	1
20	Brc1ccccc1CN1CCN(Cc2c[nH]c3ccccc23)CC1	/	-6.9	/	13
21	Cc1ccc(C(=O)Nc2ccc(NC(=O)c3ccc(C)o3)cc2)o1	2890	0.5	-15	6
22	CC12CCC(C)(O1)C1C(=O)N(c3nccs3)C(=O)C12 (stereo not given)	3406	4.1	-13	20
23	Cc1ccc(S(=O)(=O)N2CCN(C(=O)COC(=O)c3ccc(Cl)c(S(N)(=O)=O)c3)CC2)c(C)c1	3867	4.2	-12	10
24	Cc1ccc(-c2nnc(-c3ccccc3)o2)cc1	3301	22	-75	13
25	COC(=O)[C@@H]1C[C@]2(C(=O)O)c3ccccc3N(OOSc3ccccc3)[C@@H]2N1C(=O)OC	3440	/	-20	/
26	CC(=NNC(=O)Cn1nc(C)c([N+](=O)[O-])c1C)c1ccc(O)cc1	/	4.9	/	6
27	CCOc1ccc(N2CC(C(=O)NCc3cccc(C)c3)CC2=O)cc1 (stereo not given)	2424	-2.6	-16	/
28	COc1ccc(CNc2nc(NCc3ccc(OC)c(OC)c3)n(C(=O)c3cccs3)n2)cc1OC	6091	-0.4	-5	1
29	COc1ccc(NC(=O)CSc2nc3sc(C)cc3c(=O)n2C)cc1	3497	2.7	-13	1
30	Cc1csc(NC(=O)CSc2ncc(-c3ccccc3)[nH]2)n1	9306	3.2	-17	4

item	Mtb hypoxia rep growth	ugtP null kill	BJeLR viability
16	4	5	-3
17	-9	-1	2
18	/	/	3
19	-2	-6	-4
20	7	-16	7
21	0	1	-5
22	10	2	/
23	5	3	/
24	13	-2	5
25	/	/	13
26	4	8	/
27	/	5	8
28	15	-14	18
29	-1	-1	-9
30	-1	-1	-3

(list continues)
item	Molecule	Autofluor counter	RN4220 kill	PrP UTR inh	Mtb hypoxia rep
31	N#Cc1c(N)nc2c(c1N)CC(CCl)O2 (stereo not given)	2814	1.8	-10	3
32	CC1CCN(C(=O)CSc2nnc(CNC(=O)c3ccc(S(=O)(=O)N(C)C)cc3)o2)CC1	5771	2.4	-20	0
33	COc1ccc(CCNC(=O)c2cc(S(=O)(=O)N3CCOCC3)ccc2N2CCCC2)cc1OC	?	1.4	-20	7
34	COc1ccccc1NCc1ccc([N+](=O)[O-])s1	2420	7.3	-16	9
35	CCOc1ccc(C(C)=O)cc1COc1cccnc1[N+](=O)[O-]	3888	3.5	-7	3
36	O=S(=O)(Nc1cccc(S(=O)(=O)N2CCCC2)c1)c1ccc(F)cc1	5590	5.2	-5	1
37	COc1cc(OC)cc(C(=O)N[C@H](C(=O)OCC(=O)Nc2ccc(C)cc2C)C(C)C)c1	10734	-4.8	-31	-3
38	COC(=O)C1=C(c2ccc(C(C)=O)cc2)CC2CCC1N2C(=O)N1CCCC1 (stereo not given)	/	2.0	/	0
39	CCCCC(=O)Nc1cc([N+](=O)[O-])ccc1Cl	2382	2.8	2	7
40	COC(=O)[C@H](Cc1ccccc1)NC(=O)NCc1cccs1	19692*	4.5	-6	6
41	CC(C)(C)C(=O)COC(=O)C1CC(=O)N(c2ccccc2)C1 (stereo not given)	2438	-2.3	-26	-5
42	CCOC1OC(C(=O)O)=CC(c2csc3ccccc23)C1CCCO (stereo not given)	/	4.7&4.9	/	7&6
43	COc1ccc(CNC(=O)CNC(=O)c2ccc(Br)o2)cc1OC	4631	2.4	-20	1
44	CCc1noc(C)c1C(=O)N1CCN(S(=O)(=O)c2c(C)c(C)cc(C)c2C)CC1	4508	/	-19	/
45	C=CCNC(=O)C1CC(=O)N(c2ccc(OCC(=O)Nc3ccc(CC)cc3)cc2)C1 (stereo not given)	5501	1.7	-9	13

item	Mtb hypoxia rep growth	ugtP null kill	BJeLR viability
31	4	8	-3
32	-1	8	8
33	3	10	4
34	6	1	2
35	18	2	31
36	-5	-1	/
37	-3	-7	2
38	8	-5	/
39	3	13	4
40	9	-1	13
41	1	-2	1
42	5&5	-4&2	/
43	-7	2	-5
44	/	/	-11
45	5	5	-3

Going on with the list.
item	Molecule	Autofluor counter	RN4220 kill	PrP UTR inh	Mtb hypoxia rep
46	OCCN(CC#CC(O)(c1ccccc1)C1CCCC1)CCO (stereo not given)	2943	10	-11	16
47	O=c1c2ccccc2nnn1CSc1nnc(COc2ccc(Cl)cc2)n1Cc1ccco1	22380*	2.6	-5	6
48	CC(=Nc1ccccc1C(F)(F)F)c1ccncc1	3889	0.3	-3	0
49	COc1ccc(S(=O)(=O)NCC2CCCN(C(=O)c3ccccc3)C2)cc1 (stereo not given)	4364	-0.4	-17	6
50	CN(C)c1ccc(/C=N/NC(=O)c2ccn(C)n2)cc1	6305	/	-39	/
51	CCC(CC)C(=O)N1CC(=O)Nc2ccc(Br)cc2C1c1ccccc1 (stereo not given)	4412	-0.1	-11	-9
52	Cc1ccccc1C1CC(=O)NC2=C1C(=O)CCC2 (stereo not given)	2115	2.5	-5	/
53	CN(CC(=O)Nc1ccc(F)cc1)C(=O)COC(=O)C1CCN(c2ccc(C(F)(F)F)cn2)CC1	?	-2.8	-15	-1
54	C=CCn1c(CC(C)(C)C)nc2ccccc21	4951	7.1	-12	7
55	CC(C)c1cccc(C(C)C)c1NC(=O)COC(=O)c1ccc(OCC(=O)Nc2cccc(C(F)(F)F)c2)cc1	7601	0.6	-12	11
56	COc1ccc(NC(=O)CSc2nnc(CCC(=O)Nc3ccc(C)c(Cl)c3)n2C)cc1	7241	-2.9	-16	-4
57	CCOC(=O)C1(C(=O)OCC)C(c2ccccc2)CC(O)N1C(C)=O (stereo not given)	3924	2.1	-22	-1
58	COc1cc(NS(=O)(=O)c2ccc(NC(=O)/C=C/C(=O)O)cc2)nc(OC)n1	3571	0.3	-7	7
59	N#Cc1cccc(NC(=O)CSc2sc3c(O)cc(=O)[nH]c3c2C#N)c1	5560	0.2	3	9
60	CC(=NNS(=O)(=O)c1ccc(C)cc1)c1c[nH]c2ccccc12	/	3.1	/	2

item	Mtb hypoxia rep growth	ugtP null kill	BJeLR viability
46	10	3	-5
47	-8	10	3
48	-11	6	9
49	18	3	7
50	/	/	5
51	-2	-10	-4
52	/	1	-3
53	-2	-4	-8
54	2	16	-4
55	7	-3	-3
56	4	-11	-3
57	14	-1	-3
58	1	7	0
59	-5	13	-9
60	3	5	/

Next records follow:
item	Molecule	Autofluor counter	RN4220 kill	PrP UTR inh	Mtb hypoxia rep
61	COC(=O)c1cccc(NC(=O)C(C)(C)C)c1	3821	-0.9	-18	11
62	CC(=O)c1ccc(NC2c3ncccc3C(=O)N2Cc2ccc(F)cc2)cc1 (stereo not given)	21897*	-3.7	-6	-4
63	COc1ccccc1N=Nc1c(C)n[nH]c1C	3617	5.4	-11	-3
64	O=C(c1c(F)cccc1F)N1CCN(S(=O)(=O)c2ccc3c(c2)OCCO3)CC1	4095	2.7	-30	16
65	CN(CCC#N)S(=O)(=O)c1ccc2[nH]cc(C(=O)NCCc3ccccc3)c(=O)c2c1	2626	-4.6	-24	-1
66	COc1c(C)cccc1C(=O)NC(=S)Nc1ccccc1N1CCCC1	6619	2.7	-20	1
67	O=C1C2C3CCCC3=C3CCCC3C2C(=O)N1c1cccc(Cl)c1 (stereo not given)	2894	/	-1	/
68	COc1cc(C(=O)Nc2ccc(C#N)cc2)c([N+](=O)[O-])cc1OC	4643	-2.0	-27	-9

item	Mtb hypoxia rep growth	ugtP null kill	BJeLR viability
61	7	4	0
62	3	-9	-3
63	-2	-5	16
64	6	7	/
65	8	-4	-4
66	8	66	6
67	/	/	4
68	-2	-4	3
